From PubChem
Cruzain inh Det = blocks cruzain activity in presence of Triton detergent | P25779 | purified cruzain, Z-FR-AMC fluorescence, 0.01% Triton | Potency, µM, without a hit: max response, negative = inhibition, usual class: inhibitors | 200,000 tested, 0.43% active | AID 1478;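 further: plate controls were neutral wells for no effect and buffer without enzyme for full effect; nearly all actives have a fitted effect of over 40% in size; top concentration of the series not given in the record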
Target sequence (P25779 123-467 limits assumed): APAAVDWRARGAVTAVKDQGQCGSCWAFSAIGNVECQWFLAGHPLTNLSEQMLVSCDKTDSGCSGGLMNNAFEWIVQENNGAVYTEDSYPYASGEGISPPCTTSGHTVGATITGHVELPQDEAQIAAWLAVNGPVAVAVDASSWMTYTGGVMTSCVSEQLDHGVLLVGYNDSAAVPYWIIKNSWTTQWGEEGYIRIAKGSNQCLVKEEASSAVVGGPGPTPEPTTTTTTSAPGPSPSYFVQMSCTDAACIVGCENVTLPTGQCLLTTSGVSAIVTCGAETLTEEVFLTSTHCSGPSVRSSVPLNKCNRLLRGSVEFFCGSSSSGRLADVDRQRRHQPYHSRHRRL
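In this qHTS format, compounds are incubated with 1.5 nM cruzain for 15 min at room temperature before 2 uM Z-FR-AMC is added. Release of AMC is followed at 360/450 nm, and progress is taken as the 60 s fluorescence difference.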
LASV entry inh = blocks Lassa virus binding to or entry into cells; Lassa virus pseudotype entry inhibition, cell reporter; control for the full effect not named in the record; Potency, µM (highest dose often 37.9 µM), without a hit: at the highest dose activity change, negative = inhibition, hits mostly inhibitors; 300,000 tested, 1.2% active; active means well fitted inhibition curve with a large enough effect; inconclusive means small, poorly fitted or top-dose-only effect, or effect the other way; inactive means flat fitted curve, though single readings scatter; tested in HEK293 cells; further: on the % scale 0 is the no-effect control and ±100 the full control effect; nearly all actives have a fitted effect of over 50% in size; luciferase read-out
RE007 growth inh = less growth of the S. pombe RE007 Vpr strain; S. pombe RE007 Vpr strain, BacTiter-Glo ATP luminescence, 24 h; control for the full effect not named in the record; Potency, µM (highest dose often 92.2 µM), without a hit: at the top dose activity change, negative = less growth; 360,000 tested, 0.21% active; AID 651644; active = well fitted falling curve with a large enough effect; inconclusive = small, poorly fitted or top-dose-only effect; inactive = no such curve, though single readings can be large or run the other way;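 further: on the % scale 0 is the no-effect control and ±100 the full control effect; nearly all actives have a fitted effect of over 50% in size; the assay follows cell death caused by Vpr and the record does not say whether a fall means rescue or toxicity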
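Fission yeast RE007 carrying one integrated HIV-1 vpr copy, seeded at OD 0.01 in PMG+AL medium with 23 nL pinned compound. Grown 24 h at 30 degrees; viability read by BacTiter-Glo luminescence after 5 min.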
NS1 inh = inhibitors of influenza NS1 protein function; Potency, µM (top dose mostly 46.1 µM), inactives show at the top dose activity, positive = more growth; S. cerevisiae slowed by influenza A NS1, growth recovery by OD600; 270,000 tested, 0.4% active; active means well fitted rising curve with a large enough effect; inconclusive means small, poorly fitted or top-dose-only effect; inactive means no such curve, though single readings can be large or run the other way; further: nearly all actives have a fitted effect of over 50% in size
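Recovery from NS1-induced slow growth read by OD600 in budding yeast switched to galactose assay medium (pH 6.0, -URA) at 1:100 dilution. Compound 23 nl per well; the matching strain lacking NS1 serves as control.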
SARS PLP yeast = blocks SARS-CoV papain-like protease in a yeast assay | 330,000 tested, 0.19% active | Potency, µM (titrated, usually from 32.9 µM), for the others: top-dose activity, positive = growth rescue | S. cerevisiae expressing SARS-CoV PLpro, growth rescue; control for the full effect not named in the record; active means well fitted rising curve with a large enough effect; inconclusive means small, poorly fitted or top-dose-only effect; inactive means no such curve, though single readings can be large or run the other way; further: 0% is about no effect; nearly all actives have a fitted effect of over 55% in size; growth read by luminescence after 48 h
Cruzain inh noDet = cruzain (T. cruzi) inhibition without detergent | 200,000 tested, 2.3% active | AID 1476 | Potency, µM, for inactives: max response, negative = inhibition, actives largely listed as inhibitors | purified cruzain, Z-FR-AMC fluorescence, no detergent | P25779;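 further: plate controls were enzyme without inhibitor for no effect and buffer without enzyme for full effect; nearly all actives have a fitted effect of over 40% in size; top concentration of the series not given in the record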
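Purified cruzain at 1.5 nM, pre-incubated 15 min with compound at room temperature in 100 mM sodium acetate pH 5.5, 5 mM DTT, 0.00005% Triton X-100. Reaction started with 2 uM Z-FR-AMC; AMC fluorescence increase over 60 s gives rate.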
Marburg entry inh = Marburg virus entry inhibition | Marburg virus pseudotyped entry inhibition, cell reporter; control for the full effect not named in the record; about a third of the inactives were read at about 46 µM | Potency, µM (doses to about 37.8 µM), for inactives: at the top dose activity change, negative = inhibition, most hits filed as inhibitors | 300,000 tested, 1.8% active; active = well fitted inhibition curve with a large enough effect; inconclusive = small, poorly fitted or top-dose-only effect, or effect the other way; inactive = flat fitted curve, though single readings scatter; tested in HEK293 cells; about a fifth of its hits are not listed in these tables; further: on the % scale 0 is the no-effect control and ±100 the full control effect; luciferase read-out
2A StopGo = FMDV 2A StopGo reporter, luciferase signal | human cells with a luciferase reporter of 2A StopGo recoding; control for the full effect not named in the record | Potency, µM (highest dose often 57.9 µM), for inactives: top-dose signal change, negative = less light | 410,000 tested, 1.2% active; active = well fitted falling curve with a large enough effect; inconclusive = small, poorly fitted or top-dose-only effect; inactive = no such curve, though single readings can be large or run the other way; tested in HEK293T cells; further: on the % scale 0 is the no-effect control and ±100 the full control effect; nearly all actives have a fitted effect of over 45% in size; luciferase light after 4 h
* = called active by the depositor; ? = inconclusive; · = not tested or not shown; & = joins results of further samples; [ ] = remark or other dose. Unless noted, the call rests on the fitted dose curve; in most records, active means well fitted curve in the direction sought with a large enough effect; inconclusive means small, poorly fitted or top-dose-only effect, or another doubt; inactive means no such curve, though single readings can be large; an effect the other way counts as inactive or inconclusive. Potency means the concentration at half of the fitted maximal effect.

SMILES	Cruzain inh Det	LASV entry inh	RE007 growth inh	NS1 inh	SARS PLP yeast	Cruzain inh noDet	Marburg entry inh	2A StopGo
COc1ccc(C)cc1NS(=O)(=O)c1ccccc1	·	-6%[46.1 µM]	-6%	·	·	·	13%[46.1 µM]	10%
CCC1CCCCN1C(=O)COC(=O)c1n[nH]c2ccccc12 (configuration not stated)	-3.0%	14%	4%	-2%	-1%	-4%	12%	-8%
O=C(CC1SC(=NC2CCCCC2)NC1=O)Nc1ccccc1 (configuration not stated)	-2.5%	-15%	-10%	-1%	-14%	-1%	-1%	·
O=C1C2C3C=CC(C4CC34)C2C(=O)N1CCCCN1CCN(c2ccc(F)cc2)CC1 (configuration not stated)	·	-14%	-19%	·	·	·	8%	-27%
CCOC(=O)c1c(N2C(=O)C3CC(C)=C(C)CC3C2=O)sc(C)c1C (configuration not stated)	-0.3%	2%	-9%	1%	-4%	13%	11%	·
CN(C(=S)NC(=O)c1ccccc1)C1CCCCC1	·	·	-4%	0%	4%	·	·	14%
Cc1ccccc1OCC(=O)NCCCNC(=O)c1ccco1	·	·	6%	0%	3%	·	?	-3%
O=C(CCC(=O)Nc1ccc(F)cc1)N/N=C/c1c[nH]c2ccccc12	·	3%[46.1 µM]	-2%	·	1%	·	-23%[46.1 µM]	-16%
O=C(NN1CCOCC1)c1ccc(Cl)cc1	-0.9%	15%	-10%	17%	9%	-10%	13%	-14%
Cc1cccc(NC(=O)Cc2noc3ccccc23)c1	-3.4%	?	-21%	11%	4%	-10%	?	52%[activator]
COc1ccc(C(Nc2cc(C)ccn2)c2ccc3ccc(C)nc3c2O)cc1 (configuration not stated)	·	?	-5%	22%	21%	·	?	-25%
C=CCC(CC=C)(C(=O)O)c1ccccc1	6.7%	0%	2%	12%	2%	10%	?	?
CC1CCN(S(=O)(=O)CCNC(=O)c2ccc3c(c2)OCO3)CC1	·	-3%	10%	·	0%	·	4%[46.1 µM]	-11%
O=C(CSCc1ccc(Cl)cc1)Nc1ccc(-c2nnc(-c3ccccc3)o2)cc1	?	18%	-4%	5%	0%	?	-3%	-19%
Cc1nc(=O)c(-c2ccccc2)c(C)n1-c1ccccc1	·	·	-19%	17%	2%	·	·	-10%
O=C(N/N=C/c1ccc(N2CCOCC2)c([N+](=O)[O-])c1)c1ccc(F)cc1	-7.1%	-3%	-6%	0%	-3%	6%	?	-25%
CCCNC(=O)C1CCN(S(=O)(=O)c2ccc3[nH]c(=O)ccc3c2)CC1	·	·	7%	6%	1%	·	·	-6%
CCc1ccc(C2N=C(N)Nc3nc4ccccc4n32)cc1 (configuration not stated)	-5.2%	?	·	·	·	-2%	-6%[46.1 µM]	0%
COc1cc(-c2ccc(NC(=O)c3ccc(C)cc3)c(OC)c2)ccc1NC(=O)c1ccc(C)cc1	-1.4%	-31%	16%	-5%	4%	-30%	20%&4%	15%
COc1ccc(N2C(=O)C3CCCN3C2c2ccccc2Cl)cc1 (configuration not stated)	1.9%	·	10%	11%	20%	-12%	·	5%
Cn1c(=O)cc(N2CCOCC2)[nH]c1=O	·	·	-7%	7%	1%	·	·	-8%
CCOC(=O)C1CCN(C(=O)COc2ccc(S(=O)(=O)NC(C)C)cc2)CC1	9.1%	-5%	-5%	-9%	·	2%	5%	4%
COc1c(Br)cc(Br)cc1/C=N/NC(=O)c1ccncc1	·	-9%	6%	4%	-2%	·	?	-22%
COC(=O)c1c(-c2ccccc2)csc1NC(=O)c1c(-c2ccccc2)noc1C	-2.8%	0.89µM*	2%	17%	-1%	20µM*	1µM*	?
Cc1ccc(-n2c(SCC(=O)OC(C)C)nnc2-c2ccco2)cc1	0.0%	?	12%	-17%	-3%	-8%	?	-1%

Among those listed so far, these have a Cl atom.
SMILES	Cruzain inh Det	LASV entry inh	RE007 growth inh	NS1 inh	SARS PLP yeast	Cruzain inh noDet	Marburg entry inh	2A StopGo
O=C(NN1CCOCC1)c1ccc(Cl)cc1	-0.9%	15%	-10%	17%	9%	-10%	13%	-14%
O=C(CSCc1ccc(Cl)cc1)Nc1ccc(-c2nnc(-c3ccccc3)o2)cc1	?	18%	-4%	5%	0%	?	-3%	-19%
COc1ccc(N2C(=O)C3CCCN3C2c2ccccc2Cl)cc1 (configuration not stated)	1.9%	·	10%	11%	20%	-12%	·	5%

Record cards (already shown). Order of values: Cruzain inh Det, LASV entry inh, RE007 growth inh, NS1 inh, SARS PLP yeast, Cruzain inh noDet, Marburg entry inh, 2A StopGo
`Cc1ccccc1OCC(=O)NCCCNC(=O)c1ccco1` across the screens: ·, ·, 6%, 0%, 3%, ·, ?, -3%
`COc1cc(-c2ccc(NC(=O)c3ccc(C)cc3)c(OC)c2)ccc1NC(=O)c1ccc(C)cc1` across the screens: -1.4%, -31%, 16%, -5%, 4%, -30%, 20%&4%, 15%
`CC1CCN(S(=O)(=O)CCNC(=O)c2ccc3c(c2)OCO3)CC1` across the screens: ·, -3%, 10%, ·, 0%, ·, 4%[46.1 µM], -11%

The listing picks up with the 2 entries that preceded the break.
SMILES	Cruzain inh Det	LASV entry inh	RE007 growth inh	NS1 inh	SARS PLP yeast	Cruzain inh noDet	Marburg entry inh	2A StopGo
COC(=O)c1c(-c2ccccc2)csc1NC(=O)c1c(-c2ccccc2)noc1C	-2.8%	0.89µM*	2%	17%	-1%	20µM*	1µM*	?
Cc1ccc(-n2c(SCC(=O)OC(C)C)nnc2-c2ccco2)cc1	0.0%	?	12%	-17%	-3%	-8%	?	-1%
CCOC(=O)C1=C(N)Oc2ccc3ccccc3c2C1c1ccc(O)c(OC)c1 (configuration not stated)	·	-1%	3%	0%	-12%	·	?	-23%
Cc1ccc(CNC(=O)CCc2nnc(Cc3ccc(-c4ccccc4)cc3)o2)o1	·	-2%[46.1 µM]	-3%	-8%	-1%	·	3%[46.1 µM]	-3%
COc1ccc(-c2nc(SCC(=O)Nc3nccs3)c(-c3ccc(Cl)cc3)[nH]2)cc1	-6.6%	?	-4%	23%	-10%	?	?	0%
Cc1ccc(COc2ccc(C(=O)NN)cc2)cc1	·	·	10%	3%	-1%	·	·	64%[activator]
NC(N)=NN=C(c1ccc(F)cc1)c1ccc(C(F)(F)F)cc1	·	10µM*	1%	·	·	·	?	-29%
Cc1ccc(C)c(Oc2cc(F)nc(N)n2)c1	·	16%	15%	-51%	-8%	·	?	3%
O=C(Nc1nc(-c2cccs2)c(-c2ccccc2)s1)c1ccco1	-3.6%	?	12%	?	-6%	-26%	-19%	-11%
CCOc1cccc(OCCCCN2CCOCC2)c1	2.4%	20%	-2%	-9%	3%	5%	10%	0%
O=C(Nc1cc(-c2nc3ncccc3o2)ccc1Cl)c1ccc([N+](=O)[O-])o1	·	-11%[46.1 µM]	-29%	-5%	0%	·	-24%[46.1 µM]	-16%
Cc1cc(C(=O)N2CCN(S(C)(=O)=O)CC2)sc1-c1ccccc1	4.5%	-18%	-8%	10%	-2%	-3%	-1%	-2%
Cc1cc(N/C(=N\S(=O)(=O)c2ccc(Cl)cc2)c2ccc(F)cc2)no1	-6.1%	-25%	12%	-1%	-1%	-2%	-9%	16%
O=C(NCC(c1cccnc1)N1CCN(c2ccccc2)CC1)OCc1ccccc1 (configuration not stated)	-5.2%	?	4%	-34%	-77%	1%	-1%	?
O=C1NC(c2ccccc2)Cc2ccncc21 (configuration not stated)	·	-14%	-27%	·	·	·	18%	-12%
COc1ccc(CC(=O)NCc2ccccn2)cc1OC	7.5%	-2%	-13%	-2%	-1%	-6%	6%	-25%
O=C(COc1ccc2c3c(c(=O)oc2c1)CCCC3)N1CCN(c2ccc(F)cc2)CC1	·	·	5%	4%	-3%	·	·	-26%
Cc1ccnc(SCC(N)=O)n1	·	0%	32%	·	1%	·	29%[46.1 µM]	-5%
O=C(CCNS(=O)(=O)c1ccc(Br)s1)Nc1ccc(Br)cc1	-11%	-7%[46.1 µM]	·	·	·	-17%	19%[46.1 µM]	27%
O=C(NCCc1cccs1)C(c1ccccc1)c1ccccc1	·	·	6%	-21%	6%	·	·	-20%
CCOC(=O)C1CCN(Cc2cccc(Oc3ccc(Cl)cc3)c2)CC1	·	·	-18%	-21%	0%	·	·	-21%
Cc1ccc(S(=O)(=O)N(CC(=O)NCc2ccncc2)C2CCCCC2)cc1	0.6%	27%	-16%	-3%	0%	-5%	-18%	20%
Cc1cccc(OCCCC(=O)NNC(=O)CCN2CCN(c3ccccc3)CC2)c1	·	-27%[46.1 µM]	-12%	·	0%	·	-10%	?
COC(=O)c1ccccc1NC(=O)Cn1c(=O)cc(C)c2c(C)nn(C)c21	1.4%	-3%[46.1 µM]	·	·	·	6%	·	?
Cc1[nH]n(C(N)=S)c(=O)c1N=Nc1ccc(Cl)cc1Cl	·	·	-22%	-103%	-8%	·	·	11%
Cc1cccc(CSc2ccc(-c3cccs3)nn2)c1	-7.6%&-8.3%	12%[46.1 µM]	1%	-4%	-38%	-6%&-1%	?	54%&29%[activator]
O=C(Nc1ccccc1Cl)C1CCN(Cc2cnn(-c3ccccc3)c2-n2cccc2)CC1	4.1%	-23%	-13%	12%	2%	13%	?	-9%
O=C(NC1CC(=O)N(c2ccccc2)C1)C(c1ccccc1)c1ccccc1 (configuration not stated)	-1.4%	-9%[46.1 µM]	·	·	·	0%	·	-22%
CCOC(=O)N1CCC(NC(=O)CC2C(=O)NCCN2Cc2cccc(F)c2F)CC1 (configuration not stated)	·	3%	-8%	2%	-4%	·	-1%	-5%
COc1ccccc1CN1CC(C(=O)NCc2cc(C)on2)CCC1=O (configuration not stated)	·	-1%	-3%	10%	?	·	?	-7%
